# Screening results deposited in PubChem by National Center for Advancing Translational Sciences (NCATS).
# Resorufin autofl – compounds fluorescent in resorufin spectral region | Compound fluorescence, resorufin region 547/598 nm, buffer; active compounds read high | max dye-equivalent concentration, M | actives 0.04% (n = 59,000) | AID 588; active = above 10 nM dye equivalent; inconclusive = 1 to 10 nM; inactive = 1 nM or less; a few of its hits are not listed in these tables; further: highest value over a series up to 38 µM
#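 Compounds in 100 mM Tris, pH 8.0, incubated 15 min at room temperature, then fluorescence read at 547 nm excitation/598 nm emission. Signal converted to dye-equivalent concentration via an on-plate six-point resorufin standard curve, per compound concentration.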
# AID923 – qHTS Assay for Allosteric/Competitive Inhibitors of Caspase-1: Spectroscopic Profiling in AFC Spectral Region. actives 1.1% (n = 75,000). AID 923, 2007. Potency, µM (highest dose often 57.5 µM), for the others: at the highest dose fluorescence increase, actives largely listed as activators. compound fluorescence, AFC spectral region (405/520 nm); almost no hit is shown here; active means well fitted activation curve with a large enough effect; inconclusive means small, poorly fitted or top-dose-only effect;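 further: potency means the concentration at half of the fitted maximal effect; 0% is about no effect; scaled to a free AFC standard on each plate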
#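 Compound autofluorescence profiled at 405 nm ex/520 nm em during kinetic caspase 1 run (50 nM enzyme, 5 uM Ac-WEHD-AFC, HEPES pH 7.5, 10 mM DTT). Titration up to 57 uM; baseline from regression intercept, normalized to AFC standard curve.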
# A647 autofl – compound autofluorescence in A647 spectral region; max dye-equivalent concentration, M; Compound fluorescence, A647 channel (570/671 nm), Tris buffer; 59,000 tested, under 10 active; active means above 1 µM dye equivalent; inconclusive means 0.1 to 1 µM; inactive means 0.1 µM or less;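 further: values scaled relative to a standard on each plate; highest value over a series up to 38 µM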
#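 Spectral profiling of library compounds in pH 8.0 Tris: 15 min room-temperature incubation, single ex/em pair (570/671 nm), response normalized to Alexa 647 equivalents.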
# TSHR agonist – activates the human thyroid stimulating hormone receptor; P16473; HEK293-CNG-TSHR cells (CNG channel as cAMP sensor), membrane potential dye, cAMP; Potency, µM (titrated, usually from 57.1 µM), inactives show at the top dose activation, most hits filed as activators; actives 0.48% (n = 73,000); active = well fitted activation curve of enough size with the parental cells flat; inconclusive = any curve in the parental cells; inactive = parental cells flat and receptor cells flat or falling; further: potency means the concentration at half of the fitted maximal effect; % of control where 0% means no effect; weak receptor curves with flat parental cells got no call and are not listed
# Target sequence (P16473 whole entry, looked up): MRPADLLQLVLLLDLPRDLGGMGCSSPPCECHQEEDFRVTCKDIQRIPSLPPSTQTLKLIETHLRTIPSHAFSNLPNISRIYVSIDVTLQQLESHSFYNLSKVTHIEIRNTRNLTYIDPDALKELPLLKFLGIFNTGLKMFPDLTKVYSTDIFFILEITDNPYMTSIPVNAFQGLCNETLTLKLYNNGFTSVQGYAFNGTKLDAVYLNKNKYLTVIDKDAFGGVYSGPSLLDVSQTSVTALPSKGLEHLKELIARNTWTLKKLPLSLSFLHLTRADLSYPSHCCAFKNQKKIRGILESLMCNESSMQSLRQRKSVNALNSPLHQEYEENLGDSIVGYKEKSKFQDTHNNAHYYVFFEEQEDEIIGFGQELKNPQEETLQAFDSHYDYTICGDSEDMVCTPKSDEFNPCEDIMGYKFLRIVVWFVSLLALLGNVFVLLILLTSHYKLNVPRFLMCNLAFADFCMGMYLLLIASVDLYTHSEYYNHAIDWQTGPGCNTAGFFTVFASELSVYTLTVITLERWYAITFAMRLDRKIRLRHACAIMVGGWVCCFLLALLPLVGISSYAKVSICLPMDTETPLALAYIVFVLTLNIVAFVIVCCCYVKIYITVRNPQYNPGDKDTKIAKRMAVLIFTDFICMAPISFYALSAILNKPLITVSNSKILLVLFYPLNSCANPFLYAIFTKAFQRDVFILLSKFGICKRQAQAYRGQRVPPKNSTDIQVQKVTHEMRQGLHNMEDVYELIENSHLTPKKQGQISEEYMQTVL
#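 HEK 293 cells stably expressing TSHR and a cAMP-gated CNG channel; parental CNG-only cells as counterscreen. Cells preloaded 60 min with membrane potential dye plus 100 uM RO 20-1724, then compound 30 min; fluorescence read at 590 nm.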
# A488 fluor – A488 region autofluorescence | compound autofluorescence, A488 spectral region, dye equivalency; active compounds read high | max dye equivalency, M | actives 0.1% (n = 59,000) | AID 591; active = above 10 nM dye equivalent; inconclusive = 1 to 10 nM; inactive = 1 nM or less; about half of its hits are not listed in these tables;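 further: highest value over a series up to 38 µM; compound alone in buffer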
#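 Read-out: relative fluorescence at 480/540 nm, expressed as Alexa 488 dye-equivalent concentration from a six-point A488 standard included per plate. Conditions: 100 mM Tris, pH 8.0; 15 min incubation, room temperature.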
# The depositor's hits bear a star; i = inactive; ? = inconclusive; . = no result given; & = joins results of further samples; [ ] = dose if it differs, or a comment. This is a subset; the hit share may differ from the screen's.
smiles | Resorufin autofl | AID923 | A647 autofl | TSHR agonist | A488 fluor
N#CCSc1nnc(-c2ccc(S(=O)(=O)N3CCOCC3)cc2)n1CC1CCCO1 (centres undefined) | i | 0.6% | 1.6e-08 | -8% | i
COC(=O)[C@H](CCSC)NC(=O)NCc1ccc(S(N)(=O)=O)cc1 | i | 8.9% | 1e-09 | 17% | i
Cc1ccc(-n2c(SCC(=O)OC(C)C)nnc2-c2ccco2)cc1 | i | -0.2% | 2.9e-08 | ? | i
CCOC(=O)C1CCN(C(=O)COc2ccc(S(=O)(=O)NC(C)C)cc2)CC1 | i | 3.6% | 2.8e-08 | 2% | i
COc1ccc(N2C(=O)C3CCCN3C2c2ccccc2Cl)cc1 (centres undefined) | . | 3.0% | . | 6% | .
C=CCC(CC=C)(C(=O)O)c1ccccc1 | i | -0.9% | 1e-09 | ? | i
COc1ccc(CC(=O)NCc2ccccn2)cc1OC | i | 3.4% | 2.9e-08 | -21% | i
O=C(NCC(c1cccnc1)N1CCN(c2ccccc2)CC1)OCc1ccccc1 (centres undefined) | i | -1.3% | 3.1e-08 | 24% | i
O=C(Nc1nc(-c2cccs2)c(-c2ccccc2)s1)c1ccco1 | i | 1.0% | 2.5e-09 | 14% | i
CCOc1cccc(OCCCCN2CCOCC2)c1 | . | 0.5% | . | 5% | .
Cc1cc(C(=O)N2CCN(S(C)(=O)=O)CC2)sc1-c1ccccc1 | . | 0.8% | . | 0% | .
Cc1cc(N/C(=N\S(=O)(=O)c2ccc(Cl)cc2)c2ccc(F)cc2)no1 | i | 2.2% | 7.5e-09 | 5% | i
Cc1ccc(S(=O)(=O)N(CC(=O)NCc2ccncc2)C2CCCCC2)cc1 | i | 0.8% | 1e-08 | 3% | i
Nc1c(NCc2ccccc2)c2ccccc2oc1=O | i | -1.1% | 1.6e-08 | 4% | i
COc1ccc(Oc2ncc3nc(-c4ccc(F)cc4)c(=O)n(C4CC4)c3n2)cc1 | i | -1.6% | 1.8e-08 | 0% | i
CCSc1ccc2nnc(-c3ccc(F)cc3)n2n1 | i | -1.1% | 1e-09 | ? | i
Cc1ccc([N+](=O)[O-])cc1S(=O)(=O)N(C)C | . | -0.9%&1.3%&4.2% | . | -5% | .
O=C1NCC(COCc2ccco2)O1 (centres undefined) | i | 0.4% | 6e-09 | 0% | i
O=C(Nc1ccc2c(c1)nc1n2CCOC1)c1ccccc1 | i | 1.3% | 3.1e-08 | -10% | i
Cc1csc2nc(CNS(=O)(=O)N(C)C)cn12 | . | 1.9% | . | 0% | .
O=C(c1cccc(F)c1)N1CCC2(CC1)CCN(c1ccc(-c3ccccc3)cc1)CC2 | i | 1.8% | 1e-09 | ? | i
O=C(Nc1ccc2c(c1)OCO2)c1cccc(S(=O)(=O)N2CCCC2)c1 | i | -2.0% | 3.4e-08 | 3% | i
O=C(O)CSc1nnc(-c2ccc(S(=O)(=O)N3CCCC3)cc2)n1Cc1ccco1 | i | -0.8% | 1.8e-09 | -2% | i
O=C(NCc1ccco1)C1CCCN(S(=O)(=O)c2cccc3nonc23)C1 (centres undefined) | i | 6.6% | 3.2e-08 | -4% | i
C1=C(CN2CCOCC2)COc2c1cccc2OC[C@@H]1CNCCO1 | . | -0.5% | . | 13% | .
O=C(CC1SC(=NC2CCCCC2)NC1=O)Nc1ccccc1 (centres undefined) | i | 0.1% | 9e-09 | -4% | i
O=C(CCS(=O)(=O)c1cccc2nonc12)NC1CCCCCC1 | i | -0.3% | 2e-08 | -5% | i
CCCCN(C(=O)c1cc(OC)c(OC)c(OC)c1)C1=CC2CCC(C1)N2C (centres undefined) | i | 1.1% | 7e-08 | -2% | i
Cc1ccccc1OCC(=O)Nc1ccc(N2CCN(C(=O)C(C)C)CC2)c(Cl)c1 | i | 5.2% | 1.2e-09 | . | i
CCCCn1c(SCC(=O)N2CCCc3ccccc32)nc2c1c(=O)n(C)c(=O)n2C | i | 0.1% | 6.2e-09 | ? | i
Cn1c(C(=O)OCC(=O)NCc2ccco2)cc2sccc21 | i | 2.5% | 1e-09 | 6% | i
COc1ccccc1CNC(=O)COC(=O)c1cnccn1 | i | -0.3% | 4.3e-08 | -5% | i
CC(C)(C)c1[nH]nc2c1C(c1ccc(OC(=O)c3ccco3)cc1)C(C#N)=C(N)O2 (centres undefined) | i | 0.5% | 1e-09 | ? | i
COc1ccc(OC)c(C(c2nnnn2CCc2ccccc2)N2CCN(c3ccccc3)CC2)c1 (centres undefined) | i | 0.2% | 1e-09 | ? | i
Nc1cc(CN2C(=O)c3ccccc3C2=O)cc(Cl)c1O | i | -3.3% | 3e-09 | 2% | i
O=C(Nc1c(C(=O)O)[nH]c2ccccc12)NC1CCCCC1 | i | 3.3% | 1.9e-09 | 3% | i
O=C(Cn1[nH]c(=O)c2ccccc2c1=O)OCC(=O)N1CCCc2ccccc21 | i | -0.3% | 1e-09 | 11% | i
CSC1=NCCN1C(=O)c1ccc(Br)o1 | . | 1.2% | . | -2% | .
CCC(=O)Nc1cc(C(C)C)c(O)cc1C | i | 1.7% | 1e-09 | 13% | i
Cc1c(C)n(C(=O)CSc2nccn2C)c2ccccc12 | i | . | 1e-09 | . | i
Clc1cccc2sc(N3CCCC3)nc12 | i | -1.2% | 4e-08 | -4%[11.4 µM] | i
CN1CCN(C2=NC3(CCCC3)C(C#N)C(=O)N2)CC1 (centres undefined) | i | 0.2% | 2.3e-08 | 0% | i
CCOC(=O)C1=C(C)NC(C)=C(C(=O)OCC)C1C(=O)OCC(=O)N1CCc2ccccc2C1 | i | 0.4% | 1.6e-08 | 2% | i
O=C(CC1c2ccccc2Oc2ccccc21)NCc1ccco1 | . | -3.1% | . | 16% | .
Cc1ccc(CNc2ccc(O)cc2)cc1 | i | 9.1% | 1e-09 | -8% | i
CCN(CC(=O)Nc1ccc2c(c1)OCCO2)c1ccc(S(=O)(=O)N2CCOCC2)cn1 | i | -0.4% | 5.6e-09 | -2% | i
CCOC(=O)Cn1c(=O)oc2cc(S(=O)(=O)NCCCc3ccccc3)ccc21 | . | 0.7% | . | ? | .
Cc1ccnc(NS(=O)(=O)c2cccs2)c1 | i | -0.8% | 1e-09 | 0% | i
CCOC(=O)c1cc(C(=O)c2cc(F)ccc2O)coc1=N | i | 8.1% | 2.6e-08 | 1% | i
COc1ccc(C(CC(=O)O)NC(=O)c2cccs2)cc1 (centres undefined) | i | -0.3% | 4e-08 | . | i

# Next section.
smiles | Resorufin autofl | AID923 | A647 autofl | TSHR agonist | A488 fluor
COCCCN(C(=O)Cn1ncc2c(=O)oc3ccc(C)cc3c21)C(C)c1ccncc1 (centres undefined) | . | 0.8% | . | 2% | .
CCOc1ccccc1NC(=O)c1cccc(NC(=O)c2ccco2)c1 | i | -4.7% | 1.4e-08 | . | i
CC(C)(Oc1ccc(Cl)cc1)C(=O)NCc1ccncc1 | i | -0.1% | 1e-09 | -1% | i
CCOC(=O)C1CCN(C(=O)c2ccc(NC(=O)C3CCCO3)cc2)CC1 (centres undefined) | i | -0.5% | 2.9e-08 | 1%[11.4 µM] | i
O=C1CC(c2ccc(S(=O)(=O)N3CCCCC3)cc2)CN1 (centres undefined) | i | 1.2% | 4e-09 | -3% | i
CC1(C)CC(=O)C(C=NCCO)=C(O)C1 | . | 0.8% | . | -2% | .
COc1ccc(CN(C2CCCC2)S(=O)(=O)c2ccc(-n3cnnn3)c(OC)c2)cc1OC | i | 2.5% | 1e-09 | 8% | i
CCn1c(O)c(C2=NCCCC2)c2ccccc21 | . | -0.1% | . | -12% | .
Cc1ccc(-n2ncc3c(=O)n(CC(=O)NCc4ccco4)cnc32)cc1C | . | 0.9% | . | 16% | .
COc1cc2c(cc1NC(=O)CSc1nnnn1-c1ccccc1)oc1ccccc12 | i | -1.1% | 2.7e-08 | -1% | i
COc1ccc(OC)c(-c2cc(C(=O)Nc3cccc(Cl)c3)no2)c1 | i | 2.0% | 3e-09 | 10% | i
COc1ccccc1NC(=O)N(Cc1cc2cc(OC)c(OC)cc2[nH]c1=O)CC1CCCO1 (centres undefined) | i | -1.8% | 3.1e-09 | 3% | i
N#Cc1ccc(-c2ccc(OCC(O)Cn3nnc4ccccc43)cc2)cc1 (centres undefined) | i | . | 1e-09 | . | i
Clc1ccccc1-c1nnc2sc(-c3ccncc3)nn12 | . | -0.3% | . | -1% | .
CCCC(C(=O)NC1CCCC1)N(C(=O)Cn1nnc(-c2ccc(C)o2)n1)c1ccccc1OC (centres undefined) | i | 0.0% | 1.7e-09 | ? | i
COc1ccc(-n2c(=O)c(-c3cccs3)nc3cncnc32)cc1 | i | 14% | 1e-09 | 3% | i
CCCc1nc2c(nnn2Cc2ccccc2)c(=O)[nH]1 | i | -1.6% | 7.7e-09 | 6% | i
COc1cccc(C(=O)Nc2ccc(NC(=O)C(C)(C)C)cn2)c1 | i | 0.6% | 3.3e-09 | -1% | i
CCOC(=O)c1[nH]c(C)c(C)c1C | i | 0.1% | 1e-09 | 3% | i
CCN(CCCNC(=O)Cn1ncc2c(=O)oc3ccccc3c21)c1cccc(C)c1 | . | -1.8% | . | 20% | .
COc1cccc(C(=O)Nc2ccccc2N2CCOCC2)c1 | i | -0.8% | 4.7e-08 | 20% | i
CC(Sc1nc2ccccc2o1)C(=O)O (centres undefined) | i | 1.5% | 1.5e-08 | 9% | i
N#CCn1nnc(-c2ccc3c(c2)OCO3)n1 | . | -2.4% | . | ? | .
CCOCC(=O)Nc1ccccc1C(=O)OCC | i | -0.9% | 2e-09 | 20% | i
COC(=O)C1=C(C)Nc2nnnn2C1c1ccco1 (centres undefined) | i | 0.0% | 4.7e-09 | 2% | i
COc1ccc(C(=O)NC(=O)CSc2nnc(-c3ccco3)n2-c2ccccc2)cc1 | i | -0.7% | 3.8e-08 | 15% | i
COC(=O)c1cc(NC(=O)C2COc3ccccc3O2)ccc1Cl (centres undefined) | i | -0.5% | 1e-09 | -50%[inhibitor] | i
O=C(CN(CCc1ccccc1)C(=O)CNS(=O)(=O)c1ccccc1)NCc1ccco1 | i | -1.0% | 1.6e-08 | 5% | i
CCOC(=O)N1CCC(NC(=O)CC(NS(=O)(=O)c2ccc(Cl)cc2)c2ccco2)CC1 (centres undefined) | i | 1.8% | 3.7e-08 | -4% | i
O=C(O)c1ccccc1Nc1cccc(OCc2ccc3ccccc3n2)c1 | i | 8.9% | 3.5e-08 | 30% | i
O=C(CSc1nnc(CNc2ccc(F)cc2)n1Cc1ccccc1)N1CCOCC1 | i | -4.8% | 1e-09 | 7% | i
Cc1ccc(N2CC(C(=O)Nc3nnc(C(C)C)s3)CC2=O)cc1 (centres undefined) | i | -0.3% | 5.6e-09 | -2% | i
CCOc1ccc(N2C(=O)c3ccc(C(=O)OCc4c(C)noc4C)cc3C2=O)cc1 | i | -1.2% | 1e-09 | 17% | i
COc1ccc(N(C(=O)C2CCCCC2)C2C=CS(=O)(=O)C2)c(OC)c1 (centres undefined) | i | 1.8% | 2e-09 | 6%[11.4 µM] | i

# Another view of six compounds above.
# Fields: Resorufin autofl | AID923 | A647 autofl | TSHR agonist | A488 fluor
O=C(CN(CCc1ccccc1)C(=O)CNS(=O)(=O)c1ccccc1)NCc1ccco1
  i | -1.0% | 1.6e-08 | 5% | i
COc1ccc(N(C(=O)C2CCCCC2)C2C=CS(=O)(=O)C2)c(OC)c1 (centres undefined)
  i | 1.8% | 2e-09 | 6%[11.4 µM] | i
COC(=O)c1cc(NC(=O)C2COc3ccccc3O2)ccc1Cl (centres undefined)
  i | -0.5% | 1e-09 | -50%[inhibitor] | i
Cc1ccc(N2CC(C(=O)Nc3nnc(C(C)C)s3)CC2=O)cc1 (centres undefined)
  i | -0.3% | 5.6e-09 | -2% | i
COc1ccc(C(=O)NC(=O)CSc2nnc(-c3ccco3)n2-c2ccccc2)cc1
  i | -0.7% | 3.8e-08 | 15% | i
CCOc1ccc(N2C(=O)c3ccc(C(=O)OCc4c(C)noc4C)cc3C2=O)cc1
  i | -1.2% | 1e-09 | 17% | i
